Compound activity deposited in PubChem by National Center for Advancing Translational Sciences (NCATS).
RE007 growth inh: less growth of the S. pombe RE007 Vpr strain. S. pombe RE007 Vpr strain, BacTiter-Glo ATP luminescence, 24 h; control for the full effect not named in the record. Potency, µM (doses to about 92.2 µM), for inactives: top-dose activity change, negative = less growth. hit rate 0.21% among 360,000. AID 651644; active = well fitted falling curve with a large enough effect; inconclusive = small, poorly fitted or top-dose-only effect; inactive = no such curve, though single readings can be large or run the other way;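 also: % is scaled to controls: 0 for no effect and ±100 for the full control effect; nearly all actives have a fitted effect of over 50% in size; the assay follows cell death caused by Vpr and the record does not say whether a fall means rescue or toxicity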
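Fission yeast RE007 carrying one integrated HIV-1 vpr copy, seeded at OD 0.01 in PMG+AL medium with 23 nL pinned compound. Grown 24 h at 30 degrees; viability read by BacTiter-Glo luminescence after 5 min.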
NS1 function inh: influenza NS1 inhibition; S. cerevisiae slowed by influenza A NS1, growth recovery by OD600; Potency, µM (series often up to 46.1 µM), inactives show at the top dose activity, positive = more growth; hit rate 0.4% among 270,000; AID 2326; also: actives are rising curves; nearly all actives have a fitted effect of over 50% in size
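Read-out: OD600 growth recovery of NS1-expressing budding yeast. Cells grown overnight at 30C in -URA glucose medium, washed, resuspended and diluted 1:100 in 2% galactose assay medium, pH 6.0. Same strain lacking NS1 served as positive control.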
MARV entry inh: inhibitors of Marburg virus binding or cell entry; Marburg virus pseudotyped entry inhibition, cell reporter; control for the full effect not named in the record; about a third of the inactives were read at about 46 µM; Potency, µM (doses to about 37.8 µM), for the others: top-dose activity change, negative = inhibition, hits mostly inhibitors; hit rate 1.8% among 300,000; AID 540276; active = well fitted inhibition curve with a large enough effect; inconclusive = small, poorly fitted or top-dose-only effect, or effect the other way; inactive = flat fitted curve, though single readings scatter; tested in HEK293 cells; about a fifth of its hits are not listed in these tables; also: % is scaled to controls: 0 for no effect and ±100 for the full control effect; luciferase read-out
SARS PLpro yeast: inhibitors of SARS-CoV papain-like protease in yeast | S. cerevisiae expressing SARS-CoV PLpro, growth rescue; control for the full effect not named in the record | Potency, µM (series often up to 32.9 µM), without a hit: at the highest dose activity, positive = growth rescue | hit rate 0.19% among 330,000; also: 0% is about no effect; nearly all actives have a fitted effect of over 55% in size; growth read by luminescence after 48 h
Cruzain Triton: inhibitors of Trypanosoma cruzi cruzain with detergent; Potency, µM, inactives show max response, negative = inhibition, hits mostly inhibitors; P25779; purified cruzain, Z-FR-AMC fluorescence, 0.01% Triton; hit rate 0.43% among 200,000; active = well fitted curve in the direction sought with a large enough effect; inconclusive = small, poorly fitted or top-dose-only effect, or another doubt; inactive = no such curve, though single readings can be large; an effect the other way counts as inactive or inconclusive;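 also: plate controls were neutral wells for no effect and buffer without enzyme for full effect; nearly all actives have a fitted effect of over 40% in size; top concentration of the series not given in the record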
Target sequence (P25779 123-467 limits assumed): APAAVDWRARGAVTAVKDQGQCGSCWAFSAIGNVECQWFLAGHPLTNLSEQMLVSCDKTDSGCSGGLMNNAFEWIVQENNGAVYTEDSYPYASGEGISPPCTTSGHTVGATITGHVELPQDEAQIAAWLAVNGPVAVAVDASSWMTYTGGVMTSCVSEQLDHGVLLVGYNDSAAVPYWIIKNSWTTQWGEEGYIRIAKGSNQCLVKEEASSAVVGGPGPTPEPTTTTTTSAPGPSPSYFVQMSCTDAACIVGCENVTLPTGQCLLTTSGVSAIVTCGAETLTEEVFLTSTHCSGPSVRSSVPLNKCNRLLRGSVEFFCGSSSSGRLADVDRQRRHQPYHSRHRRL
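Enzyme 1.5 nM, Z-FR-AMC 2 uM, NaOAc 100 mM pH 5.5, DTT 5 mM, Triton X-100 0.01%; 15 min RT compound preincubation; kinetic ex360/em450, 60 s delta.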
LASV entry inh: blocks Lassa virus binding to or entry into cells; Lassa virus pseudotype entry inhibition, cell reporter; control for the full effect not named in the record; Potency, µM (doses to about 37.9 µM), for the others: top-dose activity change, negative = inhibition, hits mostly inhibitors; hit rate 1.2% among 300,000; AID 540256; active means well fitted inhibition curve with a large enough effect; inconclusive means small, poorly fitted or top-dose-only effect, or effect the other way; inactive means flat fitted curve, though single readings scatter; tested in HEK293 cells; also: % is scaled to controls: 0 for no effect and ±100 for the full control effect; nearly all actives have a fitted effect of over 50% in size; luciferase read-out
StopGo reporter: FMDV 2A StopGo reporter, luciferase signal | human cells with a luciferase reporter of 2A StopGo recoding; control for the full effect not named in the record | Potency, µM (doses to about 57.9 µM), for inactives: at the highest dose signal change, negative = less light | hit rate 1.2% among 410,000 | AID 1159524; active = well fitted falling curve with a large enough effect; inconclusive = small, poorly fitted or top-dose-only effect; inactive = no such curve, though single readings can be large or run the other way; tested in HEK293T cells; also: % is scaled to controls: 0 for no effect and ±100 for the full control effect; nearly all actives have a fitted effect of over 45% in size; luciferase light after 4 h
Cruzain noTriton: blocks cruzain activity in detergent-free assay. P25779. purified cruzain, Z-FR-AMC fluorescence, no detergent. Potency, µM, for inactives: max response, negative = inhibition, most hits filed as inhibitors. hit rate 2.3% among 200,000; active = well fitted curve in the direction sought with a large enough effect; inconclusive = small, poorly fitted or top-dose-only effect, or another doubt; inactive = no such curve, though single readings can be large; an effect the other way counts as inactive or inconclusive;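 also: plate controls were enzyme without inhibitor for no effect and buffer without enzyme for full effect; nearly all actives have a fitted effect of over 40% in size; top concentration of the series not given in the record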
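Detergent-free condition (0.00005% Triton X-100) in acetate buffer pH 5.5 with DTT. 1.5 nM enzyme and compound were pre-mixed 15 min, then 2 uM Z-FR-AMC substrate added; reaction progress from fluorescence change between first and third reads (60 s).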
Active calls of the source: *; ? = inconclusive; . = no result given; & = joins results of further samples; [ ] = dose if it differs, or a comment. Unless noted, calls follow the shape of the dose curve; as a rule, active means well fitted rising curve with a large enough effect; inconclusive means small, poorly fitted or top-dose-only effect; inactive means no such curve, though single readings can be large or run the other way. Potency is read from the fitted curve at half-maximal effect. Random draw from the library. About 4.5% of those tested had a hit in this group.

SMILES	RE007 growth inh	NS1 function inh	MARV entry inh	SARS PLpro yeast	Cruzain Triton	LASV entry inh	StopGo reporter	Cruzain noTriton
O=C1CCC(C(=O)OCC(=O)c2ccccc2)N1 (centres undefined)	-4%	3%	?	1%	.	25%	16%	.
Cc1ccccc1NC(=O)C(=Cc1ccc(C(=O)O)cc1)C(=O)Nc1ccccc1C	28%	-2%	?	0%	.	?	5.6µM*	.
CC(C)NC(=O)COc1ccc(/C=N/NS(=O)(=O)c2ccccc2)cc1	1%	-8%	0%	-3%	1.7%	6%	59%[activator]	0%
COc1ccccc1C(=O)N1CCN(C(=O)c2ccncc2)CC1	-6%	5%	?	4%	0.5%	-3%	-2%	-4%
C=CCn1c(O)c(C=NCCCn2ccnc2)c(=O)[nH]c1=O	4%	7%	2%[46.1 µM]	3%	.	-5%[46.1 µM]	-13%	.
O=C(O)CSC1c2ccccc2C(=O)N1c1ccccc1 (centres undefined)	7%	5%	2%	-1%	3.4%	1%	-12%	-5%
Cc1cc(C(=O)NNC(=S)Nc2cccc(C(F)(F)F)c2)nn1C	-1%	4%	18%[46.1 µM]	3%	.	-13%[46.1 µM]	-16%	.
O=C(CCC(=O)OC(C(=O)c1ccccc1)c1ccccc1)Nc1ccccc1 (centres undefined)	12%	11%	5%	-6%	-15%	0%	-8%	-11%
Cc1c(NC(=O)Nc2ccccc2C(F)(F)F)sc2nc3n(c(=O)c12)CCC(C)CC3 (centres undefined)	.	.	19%[46.1 µM]	.	-0.7%	.	-18%	-13%
O=c1c2ccccc2nnn1CSc1nc2ccccc2[nH]1	-12%	1%	?	18%	-15%	?	31%[activator]	5%
COc1cccc(NS(=O)(=O)c2ccc(Br)s2)c1	-16%	-61%	8%&5%	-4%	-4.4%	11%	0%	8%
O=C(NC1CC1)C(Cl)c1ccccc1 (centres undefined)	3%	3%	17%	2%	.	20%	-14%	.
COc1ccccc1-c1nnc(SCC(=O)Nc2nc(-c3ccccc3)cs2)n1C	-13%	6%	23µM*	26%	-6.1%	23µM*	32µM*	-3%
Cc1ccccc1N1C(=O)C(Oc2ccc(Cl)cc2)C1CNC(C)(C)C (centres undefined)	17%	-20%	?	-5%	0.2%	-9%	5%	8%
Cc1cccc(CNC(=O)CCc2nnc(C3CCCCC3)o2)c1	2%	-1%	-5%[46.1 µM]	-1%	.	?	31%[activator]	.
C=CCNc1nc(NC(C)(C)CO)nc(OC)n1	8%	-4%	13%	-2%	-1.1%	2%	-10%	0%
CC(C)Cn1c(=O)c(C(=O)NCc2ccccn2)c(O)c2ccccc21	-21%	-34%	?	-20%	-1.5%	?	?	?
Cc1cc(Cl)ccc1Oc1ncnc2onc(C)c12	-11%	-4%	-8%	4%	.	4%	-15%	.
O=C(CSc1nnc(NC(=O)C2CC(=O)N(c3ccc(F)cc3)C2)s1)NCC1CCCO1 (centres undefined)	2%	3%	13%	-5%	.	28%	-30%	.
O=C(CCN1C(=O)/C(=C/c2ccc(F)cc2)SC1=S)NCCc1cnc[nH]1	-7%	9%	17%[46.1 µM]	3%	.	?	6%	.
Cc1cccc(NC(=O)c2cc(Cl)nc3ccccc23)c1	-6%	-6%	-20%	-1%	2.2%	?	-15%	-1%
O=C(CSc1nnc(-c2cccnc2)s1)Nc1cccc(C(=O)O)c1	.	0%	-23%	7%	-1.2%	?	-4%	1%
COc1ccc(C2(CNC(=O)C(c3ccccc3)c3ccccc3)CCOCC2)cc1OC	-1%	-5%	-27%	6%	-1.8%	-38%	.	?
O=C(CSc1n[nH]c(=O)n1Cc1ccco1)Nc1ccccc1	27%	-2%	.	0%	.	.	-3%	.
CCc1ccccc1N(CC)C(=O)c1cc2c(s1)-c1ccccc1OC2	.	.	?	.	-14%	.	-24%	-3%

Next results.
SMILES	RE007 growth inh	NS1 function inh	MARV entry inh	SARS PLpro yeast	Cruzain Triton	LASV entry inh	StopGo reporter	Cruzain noTriton
C=C(C)C(=O)N1CC2(CC(c3cccc(NC(=O)CC(c4ccccc4)c4ccccc4)c3)=NO2)C[C@H]1C(N)=O (some centres undefined)	1%	-4%	.	4%	.	.	-19%	.
CCOc1ccc(C2C=C(c3ccc(C)cc3)Nc3ncnn32)cc1 (centres undefined)	.	-94%	.	-11%	17%	.	.	?
COc1ccccc1NC(=O)C1=C(C)Nc2nc(-c3cccs3)nn2C1c1cccc(O)c1 (centres undefined)	7%	-4%	?	4%	-7.2%	?	?	2%
Cc1nc2ccccc2c(=O)n1/N=C/c1ccccc1OC(F)F	-12%	-3%	3%	-1%	.	9%	-8%	.
O=C(Nc1ccc(Br)cc1)c1cccc(N2C(=O)C3C4CCC(C4)C3C2=O)c1 (centres undefined)	3%	7%	?	-7%	-4.0%	?	40µM*	?
Cn1c(N2C(=O)CC(Cc3ccccc3)C2=O)nc2ccccc21 (centres undefined)	-8%	-9%	15%	4%	0.6%	12%	-13%	7%
O=C(CN1C(=O)c2cccc3cccc1c23)NCc1cccnc1	-7%	-1%	?	2%	-0.4%	10%	-17%	-5%
CN1CCN(S(=O)(=O)c2cccc(C(=O)N(Cc3ccccc3)c3ccccc3)c2)CC1	-10%	.	16%	.	.	13%	11%	.
CCNC(=O)C1CC(=O)OC12CCCCC2 (centres undefined)	-16%	-18%	?	11%	4.5%	18%	-6%	-9%
CCC(C)c1ccc(C(C)NC(=S)NCc2ccc(F)cc2)cc1 (centres undefined)	12%	1%	?	15%	.	?	?	.
CCC(CC)NC(=O)c1ccc2c(c1)OCCO2	0%	4%	-5%	1%	1.9%	22%	19%	-12%
O=C(Nc1ccc(Br)cc1F)c1ccc2c(c1)N(Cc1ccccc1)C(=O)CS2=O (centres undefined)	7%	-46%	.	?	-6.2%	.	-25%	-5%
O=C(CNS(=O)(=O)c1cccc(C(F)(F)F)c1)Nc1ccccc1F	-2%	-2%	-6%	0%	-4.9%	-3%	0%	4%
O=C(NCCCn1ccnc1)C(=O)NCc1ccc(Cl)cc1	-9%	4%	20%[46.1 µM]	-2%	0.1%	0%	0%	-5%
CCOC(=O)N1CCN(C(=O)C(CC(C)C)NS(=O)(=O)c2ccc3c(c2)oc(=O)n3C)CC1 (centres undefined)	4%	0%	-16%	1%	0.9%	?	.	-3%
COc1ccc(OC)c(CN2CCN(C(=O)c3cccc(S(=O)(=O)Nc4ccccc4OC)c3)CC2)c1	-16%	.	?	-7%	.	2%	-26%	.
COc1ccc(NC(=O)CSc2n[nH]c(-c3ccccc3)n2)cc1Cl	.	.	.	.	-6.8%	-21%[46.1 µM]	-15%	-18%
Cc1c(C)c2ccc(OCC(=O)N3CCN(c4ccccc4)CC3)cc2oc1=O	-1%	-8%	.	-9%	.	.	-16%	.
CCOC(=O)c1c(C)[nH]c(C(=O)COC(=O)[C@H](C)N2C(=O)C3CCCCC3C2=O)c1C (some centres undefined)	1%	.	-16%[46.1 µM]	.	.	?	-26%	.
CCOC(=O)c1[nH]c2ccc(OC)cc2c1NC(=S)N1CCN(c2cccc(Cl)c2)CC1	0%	-2%	9%	-11%	-4.4%	2%	-18%	2%
S=c1nc(-c2ccccc2)c(-c2ccccc2)n[nH]1	17%	-2%	.	0%	.	.	-3%	.
O=C(NC(=S)N1CCCc2ccccc21)c1ccc(Br)cc1	-9%	12%	-4%	-30%	-8.1%	1%	15%	?
COc1cccc(NC(=O)C(=O)NCCc2ccc(F)cc2)c1	-15%	-4%	10%[46.1 µM]	0%	.	8%	50%[activator]	.
COc1ccc(C(=O)N2CCN(c3ccc(NC(=O)c4cccnc4)cc3)CC2)cc1	28%	-4%	-3%	-4%	.	9%	-10%	.
O=C(NCCc1ccccc1)c1ccc2nc3cc(Cl)ccc3c(=O)n2c1	0%	-2%	.	0%	.	.	-8%	.

Whole records as entered above. Order of screens: RE007 growth inh	NS1 function inh	MARV entry inh	SARS PLpro yeast	Cruzain Triton	LASV entry inh	StopGo reporter	Cruzain noTriton
COc1cccc(NS(=O)(=O)c2ccc(Br)s2)c1 across the screens: -16%	-61%	8%&5%	-4%	-4.4%	11%	0%	8%
Cc1ccccc1NC(=O)C(=Cc1ccc(C(=O)O)cc1)C(=O)Nc1ccccc1C across the screens: 28%	-2%	?	0%	.	?	5.6µM*	.
CCC(C)c1ccc(C(C)NC(=S)NCc2ccc(F)cc2)cc1 (centres undefined) across the screens: 12%	1%	?	15%	.	?	?	.

Next section:
SMILES	RE007 growth inh	NS1 function inh	MARV entry inh	SARS PLpro yeast	Cruzain Triton	LASV entry inh	StopGo reporter	Cruzain noTriton
N#Cc1ccccc1Sc1ccccc1C(=O)OCc1nnc(-c2ccccc2)o1	1%	4%	-26%[46.1 µM]	-4%	-10%	?	3%	-10%
CCn1c(SCc2ccc(Cl)c(Cl)c2)nnc1C(C)NC(=O)c1ccc(OC)cc1 (centres undefined)	0%	6%	3%	0%	-4.5%	0%	?	1%
CC(=O)c1ccc(NC(=O)Nc2ccc(Br)cc2C)cc1	-4%	-1%	.	0%	.	.	15%	.
CCOC(=O)N1CCN(c2cc(N(C)CCO)c([N+](=O)[O-])c3nonc23)CC1	-5%	.	0%	1%	.	-2%	-10%	.
CCOC(=O)c1cnc(-n2nc(C)cc2C)nc1N1CCOCC1	2%	-8%	-13%	7%	3.4%	9%	8%	11%
Cc1cccc2sc(NC(=O)CCn3cccc3)nc12	20%	.	0%[46.1 µM]	-1%	.	.	14%	.
CCOc1ccc(NC(=O)NCCCSC2CCCCC2)cc1	-10%	-5%	-1%	-4%	-1.1%	-19%	-12%	-1%
COc1ccc(OC)c(NC(=O)Cn2nc3c(cc2=O)CCCC3)c1	.	.	?	.	-1.6%	10%[46.1 µM]	0%	23%
COc1ccc(-c2nc(Cn3c(SCc4ccccc4F)nc4ccncc43)c(C)o2)cc1OC	.	.	19%[46.1 µM]	.	-16%	-13%[46.1 µM]	-22%	?
COc1ccc(-c2[nH]ncc2CN2CCN(c3ccccn3)CC2)c(OC)c1	-8%	0%	3%[46.1 µM]	2%	.	0%[46.1 µM]	3%	.
